UCH37 inh: human UCH37 deubiquitinating enzyme inhibition; Q9Y5K5; purified proteasome/UCH37, Ub-AMC cleavage fluorescence; inhibition, % (no concentration beside the values); 330,000 tested, 0.33% active; AID 588478;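 active = mean of two replicates above 20%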;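 also: 0% = compound-free wells with enzyme and 100% = wells lacking proteasome; stock transfer was 100 nL into about 20 µL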
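assay system = human UCH37 enzyme supplied as purified proteasome complex | amount = proteasome at 0.15 nM in the dispensed enzyme solution | schedule = 30 min compound-proteasome preincubation then 25 min substrate reaction, room temperature | measured by = fluorescence, ex 355 nm, em 460 nm | benchmarks = no-proteasome wells (full inhibition) and compound-free wells (no inhibition)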
FGF22 binding: FGF22 (human) thermal shift binding | Q9HCT0 | recombinant FGF22 thermal shift, SYPRO orange fluorescence; percent of sucrose octasulfate shift, DMSO zero | calls only at 9.99 µM | 340,000 tested, 1.5% active | AID 651658;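 active = melting point raised past a set limit in the mean and every replicate; three in four hits are not shown here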
Target sequence (Q9HCT0 whole entry, looked up): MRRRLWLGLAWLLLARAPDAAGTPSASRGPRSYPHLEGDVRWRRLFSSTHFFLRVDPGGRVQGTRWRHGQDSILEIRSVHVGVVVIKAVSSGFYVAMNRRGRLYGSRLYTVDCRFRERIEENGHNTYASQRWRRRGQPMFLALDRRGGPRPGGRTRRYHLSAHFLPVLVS
HNF4A DNA FP: change in binding of human HNF4 alpha to DNA | P41235 | HNF4a-FITC DNA binding, fluorescence polarization, 1 h | activity change, % at 10 µM | 360,000 tested, 0.3% active | AID 1224865; in the data active = activity change above about 30%, passing the limit was not always enough;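 also: controls were the assay level and a saturating level of protein; the project sought stronger binding though the title names inhibitors; some compounds called inactive have numbers as strong as hits; positive values seem to mean higher polarization but the record does not say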
Target sequence (P41235 whole entry, looked up): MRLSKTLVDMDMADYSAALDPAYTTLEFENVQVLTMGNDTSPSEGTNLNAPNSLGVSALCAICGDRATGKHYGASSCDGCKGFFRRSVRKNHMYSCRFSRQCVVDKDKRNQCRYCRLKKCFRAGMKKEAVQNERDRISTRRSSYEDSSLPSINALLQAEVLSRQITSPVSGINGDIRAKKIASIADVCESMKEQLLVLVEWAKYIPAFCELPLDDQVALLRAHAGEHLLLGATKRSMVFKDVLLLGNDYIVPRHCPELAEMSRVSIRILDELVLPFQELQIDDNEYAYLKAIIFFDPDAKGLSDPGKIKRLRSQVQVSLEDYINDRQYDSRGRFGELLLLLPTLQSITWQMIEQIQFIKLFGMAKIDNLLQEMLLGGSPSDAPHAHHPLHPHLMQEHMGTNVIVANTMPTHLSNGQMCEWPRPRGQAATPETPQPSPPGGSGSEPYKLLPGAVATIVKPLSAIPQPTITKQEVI
E coli growth: blocks Escherichia coli growth; AID 1053175; OD600 absorbance (test concentration not listed); OD600, 23 h; hits give low values; 330,000 tested, 0.21% active;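 active = OD600 absorbance below the run mean of sample wells minus 3.6 SD, in any replicate, cut at about 0.56 in these data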;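 also: stock transfer was 300 nL into about 60 µL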
Beta2AR agonist: activates human beta-2 adrenergic receptor causing internalization | response, % (concentration not given with the values) | Am2.2-beta2AR cells, FAP receptor internalization, flow cytometry; reference of the scale not given here | P07550 | 340,000 tested, 0.43% active;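 active = response above a set limit, near 3 SD of response in nonfluorescent compounds, cut at about 42% in these data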;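 also: stock transfer was 100 nL into about 11 µL; a reference agonist was the positive control; negative values mostly stem from fluorescent compounds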
Target sequence (P07550 whole entry, looked up): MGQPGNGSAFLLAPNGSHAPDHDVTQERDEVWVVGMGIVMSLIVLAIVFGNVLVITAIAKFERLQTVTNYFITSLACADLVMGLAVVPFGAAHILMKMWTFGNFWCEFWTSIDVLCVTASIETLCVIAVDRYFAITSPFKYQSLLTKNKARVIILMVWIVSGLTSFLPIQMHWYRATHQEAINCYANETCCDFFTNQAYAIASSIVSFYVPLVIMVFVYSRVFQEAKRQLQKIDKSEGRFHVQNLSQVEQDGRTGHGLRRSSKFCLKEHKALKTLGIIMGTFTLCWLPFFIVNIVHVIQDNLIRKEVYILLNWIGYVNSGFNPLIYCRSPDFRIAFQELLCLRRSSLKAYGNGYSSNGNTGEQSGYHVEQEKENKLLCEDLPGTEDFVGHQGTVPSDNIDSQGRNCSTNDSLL
ALR inh: human ALR oxidase inhibition via reduced H2O2; purified ALR, DTT oxidation, H2O2 HRP-luminol luminescence; inhibition, % (test concentration not listed); 290,000 tested, 3.8% active;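 active = mean and each replicate at 75% or more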;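 also: stock transfer was 7.5 nL into about 7.5 µL; 0% = neutral wells and 100% = wells with inactivated enzyme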
LANA-H2B inh: blocks KSHV LANA binding to histone H2A/H2B; inhibition, % (concentration not given with the values); Q9QR71; 320,000 tested, 0.6% active; AID 2629; cell-free LANA-H2A/H2B peptide, fluorescence polarization; in the data active = inhibition mostly above about 10%, no sharp cut-off; inactive = mostly below about 6.7%;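 also: stock transfer was 7.5 nL into about 10 µL; 0% = median of vehicle wells and 100% = median of positive control wells; one replicate is shown; the record names a cut of 25% in any replicate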
Numbers without * were called inactive; i = inactive; · = no result given. These rows are one share of the data; the hit share may differ from the screen's.

SMILES	UCH37 inh	FGF22 binding	HNF4A DNA FP	E coli growth	Beta2AR agonist	ALR inh	LANA-H2B inh
COc1cccc(CN2CCNC(=O)C2CC(=O)N(C)Cc2cnccn2)c1OC (centres undefined)	3.0	i	-0.9	0.66	6	-2	1.4
COC(=O)N1c2ccccc2C=Cc2ccccc21	3.7	i	4.0	0.63	-1	-8	-0.8
Cc1cc(Cl)ccc1OCCCC(=O)Nc1cccc(-n2cnnn2)c1	5.2	i	4.2	0.69	5	4	5.1
OC[C@H]1O[C@@H](n2cnc3c(Nc4ccccc4)ncnc32)[C@H](O)[C@@H]1O	4.7	i	-3.3	·	-4	-8	-9.8
O=C(NCC1CCCO1)c1ccc2c(=O)n(CC3CCCO3)c(SCC(=O)N3CCCC3)nc2c1 (centres undefined)	-2.1	i	5.5	0.73	-6	-2	14
COc1ccccc1C(=O)NC(CCSC)C(=O)NC1CC1 (centres undefined)	2.1	i	-3.6	0.71	0	4	-5.4
COC(=O)c1ccsc1NC(=O)CSc1nnnn1-c1ccccc1SC	-0.6	·	-0.9	0.69	9	-8	-4.6
CCOC(=O)C1CCN(Cc2cnc(Oc3ccc(OC)cc3)s2)CC1	2.3	·	0.4	0.67	-2	-1	5.2
CCNc1nc(NC(C)(C)C)nc(N(CC)n2cnnc2)n1	1.8	·	2.2	0.64	1	-23	-4.0
CC(=O)c1cccc(NC(=O)Oc2ccccc2)c1	3.6	·	-0.2	0.62	-4	11	-9.5
COc1cc(/C=N/Nc2ccc(Cl)cc2)ccc1OC(=O)c1cccs1	·	·	-0.2	·	2	-45	-6.3
Cc1nc(C)c(-c2csc(Nc3ccccn3)n2)s1	5.1	i	-0.6	0.67	3	36	2.3
O=C(CSc1nnc(Cc2cc(=O)[nH]c(=O)[nH]2)n1-c1ccc(Cl)cc1)N1CCc2ccccc21	4.5	·	·	0.75	·	-17	1.7
CSc1ccc(CN(C)C(=O)C23CC4CC(CC(Cl)(C4)C2)C3)cc1	2.8	i	0.6	0.69	6	-3	-5.9
CCOC(=O)c1ccc(Oc2cc(C)nc(SC)n2)cc1	1.6	·	1.4	0.72	1	-4	-1.6
O=C(O)CCC(=O)NNC(=O)c1ccc(-c2ccccc2)cc1	·	·	-1.3	·	4	-5	4.4
COc1cc2c(cc1OC)CN(C(=O)COc1ccc(C#N)cc1)CC2	1.6	·	-1.3	0.74	1	-7	-2.0
O=C1CC(c2ccc(Cl)cc2)c2c(O)cc(O)cc2O1 (centres undefined)	4.2	i	-0.5	0.64	1	23	4.2
CC(NC(=O)c1ccco1)C(c1cccs1)N1CCOCC1 (centres undefined)	5.5	i	-1.0	0.71	1	·	3.0
COc1ccc(CNC(=O)Cc2c(C(=O)O)[nH]c3ccccc23)cc1	3.7	·	-2.6	0.69	-2	-6	1.0
Cc1ccc(C(=O)NCC(=O)NC2CCCC2)cc1	5.0	i	-1.7	0.71	0	·	-3.5
CNC(=O)c1ccc(-c2ccc(Cl)c(Cl)c2)s1	0.4	·	1.8	0.66	2	5	0.2
CCc1nc2ccccc2n1CC(O)COCC1CC=CCC1 (centres undefined)	·	i	1.2	·	-10	1	-1.4
COc1ccc(S(=O)(=O)N2CCN(C(=O)N3CCOCC3)C2C)cc1 (centres undefined)	1.4	i	-0.6	0.64	-6	-11	1.6
COc1ccc(C2c3c(oc4ccccc4c3=O)C(=O)N2c2ccc(C)cn2)cc1OC (centres undefined)	1.8	i	0.9	0.72	-13	-6	-4.3

Record cards, from the list above. Screens in order: UCH37 inh	FGF22 binding	HNF4A DNA FP	E coli growth	Beta2AR agonist	ALR inh	LANA-H2B inh
`Cc1nc(C)c(-c2csc(Nc3ccccn3)n2)s1` across the screens: 5.1	i	-0.6	0.67	3	36	2.3
`CSc1ccc(CN(C)C(=O)C23CC4CC(CC(Cl)(C4)C2)C3)cc1` across the screens: 2.8	i	0.6	0.69	6	-3	-5.9
`CC(=O)c1cccc(NC(=O)Oc2ccccc2)c1` across the screens: 3.6	·	-0.2	0.62	-4	11	-9.5
`CCNc1nc(NC(C)(C)C)nc(N(CC)n2cnnc2)n1` across the screens: 1.8	·	2.2	0.64	1	-23	-4.0
`OC[C@H]1O[C@@H](n2cnc3c(Nc4ccccc4)ncnc32)[C@H](O)[C@@H]1O` across the screens: 4.7	i	-3.3	·	-4	-8	-9.8

Returning to the listing; the 2 compounds before the break are reprinted first.
SMILES	UCH37 inh	FGF22 binding	HNF4A DNA FP	E coli growth	Beta2AR agonist	ALR inh	LANA-H2B inh
COc1ccc(S(=O)(=O)N2CCN(C(=O)N3CCOCC3)C2C)cc1 (centres undefined)	1.4	i	-0.6	0.64	-6	-11	1.6
COc1ccc(C2c3c(oc4ccccc4c3=O)C(=O)N2c2ccc(C)cn2)cc1OC (centres undefined)	1.8	i	0.9	0.72	-13	-6	-4.3
CCc1ccc(NC(=O)C(C)Oc2nnc(-c3cccs3)c(-c3cccs3)n2)cc1 (centres undefined)	2.9	·	-2.3	0.81	-9	-9	-1.2
O=C(O)c1cccc(CSc2nnc(-c3ccco3)o2)c1	4.5	·	-2.5	0.69	2	·	0.9
O=C1Nc2ccccc2C(=O)N2CCCCC12 (centres undefined)	10	i	5.3	0.69	0	2	-5.3
COc1cccc(NC(=O)Nc2nc(SC(C)(C)C)ns2)c1	3.3	i	4.5	0.6	26	14	-3.6
N#Cc1c2n(c3c(=O)n(Cc4ccc(Cl)cc4)cnc13)CCCC2	4.3	·	3.2	0.74	4	-14	0.6
COc1ccc(OC)c(NC(=O)C2CCN(c3nc(C)cc(C)n3)CC2)c1	0.3	·	-1.9	0.67	-2	-22	-1.3
C=CCn1c(COc2ccc(CC)cc2)nnc1SCC(=O)N(C)C1CCS(=O)(=O)C1 (centres undefined)	-1.2	·	-0.8	0.72	21	1	4.3
O=C1CN(C(=O)COC(=O)/C=C/c2ccco2)c2ccccc2N1	3.1	i	4.3	0.67	-11	1	-0.8
CCN(CC)C(=O)NC(c1ccc(C)c(F)c1)C(Cl)(Cl)Cl (centres undefined)	1.9	i	1.1	0.73	5	1	2.5
CCCCOc1ccc(NC(=O)C2OC3OC(C)(C)OC3C3OC(C)(C)OC23)cc1 (centres undefined)	0.4	·	-3.9	0.7	8	-6	0.8
O=C(CSc1n[nH]c(=O)n1-c1cccnc1)N1CCOCC1	0.7	i	-1.5	0.67	-4	-20	-0.4
COc1ccc2c(c1OC)C(=O)NC(C)=C(C(=O)OC(C)(C)C)C2O (centres undefined)	1.2	·	2.6	0.7	-4	8	2.2
Cc1cc(NC(=O)c2ccccc2)no1	1.0	i	-2.2	0.64	-3	51	0.7
O=C(OCC(=O)N1CCc2ccccc21)c1cc(S(=O)(=O)N2CCOCC2)ccc1F	0.6	i	-0.8	0.66	8	·	·
COc1ccc(C2C(C(=O)N3CCOCC3)=C(C)NC3=C2C(=O)CC(C)(C)C3)cc1O (centres undefined)	-41	·	4.3	0.69	8	·	3.2
COc1ccc(CNC(=O)[C@H](C)NC(=O)C2CCN(C(=O)[C@H](CCSC)NC(=O)OC(C)(C)C)CC2)cc1	0.0	i	2.5	0.7	-8	·	1.3
COc1ccc(CCN2C(=S)N(C)C(=O)C2CC(=O)Nc2ccc(F)cc2)cc1 (centres undefined)	1.8	i	-3.1	0.7	6	·	0.9
CCOC(=O)c1ccc(NC(=O)c2nc(SC)ncc2Cl)cc1	2.7	i	1.7	0.67	-7	-1	1.6
NC(=O)c1ccc(NC(=O)Nc2ccc3c(c2)OCO3)cc1	0.5	i	1.8	0.71	-2	-3	5.8
COC(=O)CC(c1ccccc1F)N1Cc2ccccc2C1=O (centres undefined)	2.5	i	-2.1	0.69	11	-8	2.6
O=C(c1ccccc1-c1ccccc1)N1CCOCC1	1.8	·	1.9	0.76	-2	-1	0.3
CCC(C)NC(=O)Cn1cnc2sc(C)c(S(=O)(=O)N3CCCCC3)c2c1=O (centres undefined)	0.4	i	0.7	0.66	-2	-2	-5.8
COc1cc(C(=O)OCC(=O)N2CCCCCC2)c([N+](=O)[O-])cc1OC	9.4	i	-0.8	0.71	2	·	1.0
COc1ccc(/C=C/C(=O)O/N=C(\N)c2ccccc2)cc1OC	-12	i	0.8	0.69	-7	-3	-2.5
O=C(COC(=O)c1cc(Br)ccc1O)NC1CCCCCC1	-4.0	i	-1.3	0.74	-5	-4	4.5

The list goes on.
SMILES	UCH37 inh	FGF22 binding	HNF4A DNA FP	E coli growth	Beta2AR agonist	ALR inh	LANA-H2B inh
COc1cccc(C=NCCNC(=O)c2nonc2N)c1O	0.4	·	-3.1	0.73	-8	1	9.3
O=C(Nc1cc(Cl)cc(Cl)c1)N1CCN(C(=O)C2CCCO2)CC1 (centres undefined)	2.7	i	4.7	0.71	-6	-7	-4.1
O=C(CN1C(=O)C2C3c4ccccc4C(c4ccccc43)C2C1=O)Nc1ccccc1C(=O)O (centres undefined)	1.6	i	3.0	0.64	-2	-1	0.2
Cc1ccc(COC(=O)c2nn(C)c(=O)c3ccccc23)cc1	2.3	i	-0.5	0.69	1	·	2.1
NS(=O)(=O)c1ccc(CCNC(=O)Cc2ccc(Cl)cc2)cc1	1.3	i	-2.7	0.65	2	·	4.2
CCOc1cc(NC(=O)C2CCCO2)c(OCC)cc1NC(=O)C1CC1 (centres undefined)	6.6	·	-1.2	0.71	-6	-11	1.1
O=C(COC(=O)CC1CC2CCC1C2)NCc1ccccc1 (centres undefined)	-0.3	·	0.6	0.7	-6	-2	-1.6
C/C(=C\C(=O)c1ccccc1)Nc1ccc(Br)c(Cl)c1	0.4	i	1.3	0.72	1	·	·
O=C(NCCCn1ccnc1)c1cc(-c2cccs2)on1	-1.8	·	1.8	0.63	-7	-4	2.9
COc1ccc(/C=C2\SC(=O)N(CCNC(=O)C3CSC4(C)CCC(=O)N34)C2=O)cc1 (centres undefined)	12	i	0.0	0.74	5	-1	-0.6
Cc1cc(OCC(=O)Nc2ccccc2N2CCCC2)ccc1C(C)C	1.9	i	-2.6	0.7	11	-1	13
O=C(Nc1cccc(Cl)c1)c1nc[nH]c1C(=O)NCCCCNC(=O)c1[nH]cnc1C(=O)Nc1cccc(Cl)c1	1.5	i	4.1	0.69	5	-6	-0.3
COc1ccc(-c2n[nH]c(C)c2-c2ccccc2OC)c(O)c1	1.5	i	2.2	0.63	-9	95*	-3.9
COc1ccc(C2/C(=C(/O)c3ccc(Br)cc3)C(=O)C(=O)N2C)cc1 (centres undefined)	11	·	0.4	0.7	-4	5	-3.3
Cc1cc2nnc(SC3CCOC3=O)n2c2ccccc12 (centres undefined)	-3.4	·	-4.2	0.68	1	-5	-6.6
O=c1[nH]nc(CNc2ccc(OC(F)(F)F)cc2)c2ccccc12	-3.3	i	-1.2	0.65	-1	-45	3.7
CCOC(=O)c1cc(-c2ccccc2C)n(Cc2cc(C)no2)n1	0.4	i	-5.2	0.7	-1	0	-4.4
COc1ccc(C/C(C)=N/NC(=S)Nc2ccc(C(C)C)cc2)cc1	·	·	-2.6	·	8	3	3.9
CC(c1ccccc1)C1C(C#N)=C(N)OC2=C1C(=O)CC(C)(C)C2 (centres undefined)	0.4	·	-3.5	0.72	2	9	1.8
O=C(Cc1ccc(S(=O)(=O)N2CCCCC2)cc1)NCc1ccc(Cl)cc1	0.7	i	-6.4	0.64	-4	-2	2.8
CN(C)/C=C/C(=O)c1cc(F)cc(C(F)(F)F)c1	9.4	i	1.9	0.67	0	2	0.7
CC1=C(C(=O)OCC2CCCCC2)C(c2ccc(F)cc2)NC(=O)N1 (centres undefined)	2.3	i	-2.3	0.71	-10	-15	6.8
O=C1CCCN1c1ccc(S(=O)(=O)Oc2cccc(Cl)c2)cc1[N+](=O)[O-]	2.4	·	-2.3	0.72	7	-3	-4.4
O=C(COc1ccccc1Cl)NNC(=O)c1ccc2c(=O)n3c(nc2c1)CCC3	1.3	i	1.0	0.64	4	·	-1.9
Brc1ccc(-c2noc(CCc3ccccc3)n2)cc1	3.7	·	-2.8	0.64	4	-1	0.4
CCc1ccc(/C=C(\Cl)c2nc3cc(Cl)ccc3c(=O)[nH]2)cc1	-17	·	-0.6	0.72	4	-1	-3.0
O=C(O)c1ccc(/C=C/c2nc3sc4c(c3c(=O)[nH]2)CCC4)cc1	-83	i	2.5	0.69	-7	19	5.1
CCOc1ccc2[nH]cc(C(=O)NCc3ccccc3)c(=O)c2c1	-1.7	i	0.1	0.71	7	19	0.5
